VDR inhibitor: blocks the human vitamin D receptor. P11473. VDR-SRC2-3 peptide fluorescence polarization, 2 h. Potency, µM, inactives show max response, negative = inhibition, usual class: inhibitors. 0.93% of 400,000 active; active = well fitted inhibition curve with a large enough effect; inconclusive = small, poorly fitted or top-dose-only effect, or another doubt; inactive = no such curve, though single readings can be large or run the other way; also: series mostly up to about 120 µM
Target sequence (P11473 whole entry, looked up): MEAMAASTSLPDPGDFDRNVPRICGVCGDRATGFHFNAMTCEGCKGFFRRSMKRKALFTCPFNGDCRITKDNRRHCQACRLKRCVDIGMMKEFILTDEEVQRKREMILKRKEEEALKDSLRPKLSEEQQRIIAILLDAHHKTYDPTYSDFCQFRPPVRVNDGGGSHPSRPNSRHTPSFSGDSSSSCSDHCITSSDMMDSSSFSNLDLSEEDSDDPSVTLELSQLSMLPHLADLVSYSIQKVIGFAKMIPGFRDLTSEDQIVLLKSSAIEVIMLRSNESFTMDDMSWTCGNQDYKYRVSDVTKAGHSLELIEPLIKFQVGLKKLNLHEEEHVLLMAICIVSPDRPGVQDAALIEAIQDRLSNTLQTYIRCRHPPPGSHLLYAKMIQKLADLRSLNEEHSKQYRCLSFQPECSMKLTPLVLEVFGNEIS
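After 23 nl compound addition and a short centrifugation, plates sat for 2 hours at ambient temperature; polarization of fluorescence then indicated loss of VDR binding to peptide SRC2-3.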
Active calls of the source: *; u = inconclusive; & = joins results of further samples; [ ] = another dose, or the depositor's remark. % is scaled to controls: 0 for no effect and ±100 for the full control effect; potency is read from the fitted curve at half-maximal effect. Not all compounds are listed; the hit share may differ from the screen's.

SMILES	VDR inhibitor
CCCC[P+](CCCC)(CCCC)Cc1ccc(NC(=O)[C@@H](Cc2ccc3ccccc3c2)NC(=NC2CCCCC2)NC2CCCCC2)cc1	3%
O=C(Oc1ccc(OC(=O)C2CCC2)cc1)C1CCC1	0%
O=C1c2cccc3cc([N+](=O)[O-])cc(c23)C(=O)N1/N=C/c1ccc(O)cc1O	-18%
Cc1ccc(C)c(NC(=O)CS(=O)(=O)c2c[nH]c3ccccc23)c1	15%
S=C(c1cn(Cc2ccc(Br)cc2)c2ccccc12)N1CCOCC1	u
Cc1cc(C)nc(N2N=C(c3ccccc3)CC2=O)n1	5%
O=C(CCN1C(=O)c2ccccc2C1=O)OCN1C(=O)c2ccccc2C1=O	6%
CCCCn1c(N)c(N(CCOC)C(=O)c2ccc(NC3CC3)c([N+](=O)[O-])c2)c(=O)[nH]c1=O	-1%
CC[C@H](C)[C@H](NC(=O)[C@H](Cc1ccc(O)cc1)NC(=O)[C@H](Cc1cnc[nH]1)NC(=O)[C@H](CCCNC(=N)N)NC(=O)[C@H](CC(C)C)NC(=O)[C@H](C)NC(=O)[C@H](CO)NC(=O)[C@H](Cc1ccc(O)cc1)NC(=O)[C@H](Cc1ccc(O)cc1)NC(=O)[C@H](CCCNC(=N)N)NC(=O)[C@H](C)NC(=O)[C@H](CCSC)NC(=O)[C@H](CC(=O)O)NC(=O)[C@H](CCC(=O)O)NC(=O)[C@H](C)NC(=O)[C@@H]1CCCN1)C(=O)N[C@@H](CC(N)=O)C(=O)N[C@@H](CC(C)C)C(=O)N[C@H](C(=O)N[C@H](C(=O)N[C@@H](CCCNC(=N)N)C(=O)N[C@@H](CCC(N)=O)C(=O)N[C@@H](CCCNC(=N)N)C(=O)N[C@@H](Cc1ccc(O)cc1)C(N)=O)[C@@H](C)O)[C@@H](C)CC	3%
COC(=O)c1ccc(OCC2c3cc(OC)c(OC)cc3CCN2C(=O)c2ccc(F)cc2)cc1 (stereo not drawn)	-6%
C=CCSc1nnc(C)n1-c1ccc(Cl)cc1	-9%
CCN(CCCNC(=O)COc1cc(=O)n(CC)c2ccccc12)Cc1ccccc1	5%
Cc1ccccc1NC(=S)N(Cc1cccs1)C1CCCC1	-7%
CCOc1ccccc1NC(=O)C1CCC(CNc2c(N3CCOCC3)c(=O)c2=O)CC1 (stereo not drawn)	-11%
O=C(Nc1ccc2c(c1)CCC2)Nc1ccc(F)cc1F	8%
COc1ccc(C(=O)OCC(=O)NCCCc2ccccc2)cc1OC	2%
Cc1noc(NC(=O)c2ccc(F)cc2)c1C#N	-11%
CCC(CCC(C)C1CCC2C3CC=C4CC(OC(C)=O)CC[C@@]4(C)C3CC[C@@]12C)C(C)C (stereo partly drawn)	0%
Cc1ccc(CNC(=O)C(=O)NCCC2CCCCN2S(=O)(=O)c2ccccc2)cc1 (stereo not drawn)	u
Cn1cc(CN2CCC(n3nccc3NC(=O)C3CCCC3)CC2)cn1	-23%
CCOc1ccc(N(CC(=O)Nc2nccs2)S(=O)(=O)c2c(C)noc2C)cc1	4%
O=C(NCCCN1CCOCC1)c1cc(-c2ccc(F)cc2)no1	-24%
Nc1ccn(CC(=O)NCc2ccccc2)c(=O)n1	22%
CCOc1cc(NC(=O)c2cccs2)c(OCC)cc1NC(=O)CCC(=O)NCC1CCCO1 (stereo not drawn)	-4%
O=C(Nc1ccc(F)cc1F)N1CCN(c2ncccn2)CC1	u
COc1ccc(C(=O)Nc2ccccc2C(=O)N/N=C/c2ccccn2)cc1OC	-12%
CCOC(=O)c1ccccc1NC(=O)CSc1ccc(-c2ccccn2)nn1	-4%
COc1ccc(CNC(=O)c2cc3c(=O)[nH]c4ccccc4c3n2C)cc1	13%
CC(=O)N1CCCc2cc(S(=O)(=O)N3CCCC3)ccc21	13%
O=C(NC(=S)Nc1cccc2cccnc12)c1cccs1	-12%
O=C(N=Nc1c(O)[nH]c2ccccc12)c1ccc(CN2CCOCC2)cc1	-2%
Brc1ccc2nc(-c3cccs3)c(NCC3CCCO3)n2c1 (stereo not drawn)	-13%
CN(C(=O)NCc1noc2ccccc12)c1cccc(Cl)c1	1%
C=CCn1cc(C(=O)N2CCN(C)CC2)c(=O)c2cc(S(=O)(=O)N(CC)CC)ccc21	10%
Cc1cc(C)c2c(CC(=O)N(Cc3ccc(N(C)C)cc3)Cc3ccco3)coc2c1	7%
Cc1cccc(NC(=O)CCc2nc3sc4c(c3c(=O)[nH]2)CCCC4)c1	11%
Cc1ccc(-n2c(Cc3cccn3C)nnc2SCC(=O)N2CCc3ccccc32)cc1	-6%
CC(C)(C)OC(=O)C[C@H]1C/C=C\C[C@H](CC(=O)N(CCO)Cc2ccccc2)C(=O)N2CCC[C@H]2COC1=O	-29%
Cc1nc(CN(C)C(=O)c2cc(COc3c(F)cccc3F)on2)cs1	13%
Cc1nc(C(F)(F)F)ccc1C(=O)Nc1ccc2ccccc2n1	6%

Shown as labelled records: part of the list above.
Cc1ccc(-n2c(Cc3cccn3C)nnc2SCC(=O)N2CCc3ccccc32)cc1
- VDR inhibitor = -6%

CC(C)(C)OC(=O)C[C@H]1C/C=C\C[C@H](CC(=O)N(CCO)Cc2ccccc2)C(=O)N2CCC[C@H]2COC1=O
- VDR inhibitor = -29%

Cc1nc(CN(C)C(=O)c2cc(COc3c(F)cccc3F)on2)cs1
- VDR inhibitor = 13%

Cc1nc(C(F)(F)F)ccc1C(=O)Nc1ccc2ccccc2n1
- VDR inhibitor = 6%

Continuation:
SMILES	VDR inhibitor
COc1ccc([C@H]2[C@H]3C=CC[C@@H](C)[C@@H]3C(=O)N2Cc2ccccc2)cc1Cl	-7%
Cn1cccc1C(=O)N1CCC2(CC1)CN(C(=O)Nc1cccc(C#N)c1)C2	-3%
COc1ccc(C(C#N)N2N=C(C)CC2(C)C)cc1OC (stereo not drawn)	11%
CC(=O)C1=C(C)NC(SCC(N)=O)=C(C#N)C1c1cccs1 (stereo not drawn)	0%
COc1cccc(-n2c(=O)c3c4c(sc3n(Cc3ccc(C)cc3)c2=O)CCCC4)c1	-4%
Cc1cc(Nc2ccc(N3CCC(C)CC3)cc2)n2ncnc2n1	11%
Cc1cc(N2CCOCC2)nc(C(C)C)n1	-16%
Cc1ccc(S(=O)(=O)N2CCN(c3nc(-c4cccs4)nc4ccccc34)CC2)cc1	-18%&-3%&-8%
COC(=O)c1ccc(NC(=S)N(Cc2cccnc2)Cc2ccco2)cc1	-11%
COC(=O)c1cc(NC(=O)c2c(F)c(F)c(F)c(F)c2F)cc(C(=O)OC)c1	-16%
Cc1ccc(NC(=O)CCNC(=O)Nc2ccccc2)cc1S(=O)(=O)N(C)C	-10%
O=C(Cn1cc(SCc2ccccc2)c2ccccc21)N1CCCCC1	10%
COc1ccccc1NS(=O)(=O)c1cccc(C(=O)NNC(=O)c2ccc(O)c(Cl)c2)c1	-6%
Cc1c(C(=O)OC2CCCCCC2)[nH]c2c1C(=O)CC(c1ccc(Cl)cc1)C2 (stereo not drawn)	-13%
C=CCSC1=N/C(=C\c2sccc2C)C(=O)S1	-11%
CN(C)/C=N/C(=S)Nc1ccccc1	30%[activator]
COc1ccc(NC(=O)CN2C(=O)NC3(CCCC3)C2=O)cc1S(=O)(=O)N1CCCCC1	3%
Cc1cc2nc(C)n3c4ccccc4nc3n2n1	-4%
COc1cccc(CN(C(=O)c2ccco2)C2CCS(=O)(=O)C2)c1 (stereo not drawn)	6%
COc1cccc(CNC(=O)C2CCN(Cc3cc4ccccc4n3Cc3ccc(C)cc3)CC2)c1	10%

Of the compounds above, four contain a cyano group:
SMILES	VDR inhibitor
Cc1noc(NC(=O)c2ccc(F)cc2)c1C#N	-11%
Cn1cccc1C(=O)N1CCC2(CC1)CN(C(=O)Nc1cccc(C#N)c1)C2	-3%
COc1ccc(C(C#N)N2N=C(C)CC2(C)C)cc1OC (stereo not drawn)	11%
CC(=O)C1=C(C)NC(SCC(N)=O)=C(C#N)C1c1cccs1 (stereo not drawn)	0%

(cont.)
SMILES	VDR inhibitor
CC(C)C(NC(=O)COc1ccc2ccccc2c1)C(=O)N/N=C/C=C/c1ccccc1 (stereo not drawn)	0%
OC(Cn1ccnc1)c1ccc(Cl)cc1Cl (stereo not drawn)	-10%
Nc1c(C(=O)Nc2ccc(S(=O)(=O)N3CCCC3)cc2)sc2nc3ccc(OC(F)(F)F)cc3cc12	-22%
O=C(O)C1CCCCC1C(=O)NCc1cn2ccccc2n1 (stereo not drawn)	-4%
CON(C)c1nc(OCCNC(=O)OCc2ccc(Cl)cc2Cl)nc(N(C)C)n1	4%
CSCC[C@H](NC(=O)COc1ccc(Cl)cc1)c1nc2ccccc2[nH]1	-2%
COc1cccc(CNC(=O)Cn2c(=O)cc(C(F)(F)F)c3c(C)nn(C)c32)c1OC	3%
COc1ccc(-c2nn3c(-c4ccccc4)nnc3c3ccccc23)cc1	-5%
CC(C)(C)NC(=O)C12CC3CC(CC(Cl)(C3)C1)C2	-18%
CC(=O)NC1C(=O)N(CCN2CCOCC2)c2ccc(C)cc21 (stereo not drawn)	u
O=C1CCC(C(=O)N2CCN(c3ccc(F)cc3)CC2)CN1CC1CCCCC1 (stereo not drawn)	9%
NC(N)=NCCCc1cn(CC(=O)N2CCNCC2)nn1	2%
CN(CCN1CCOCC1)C(=O)CC1C(=O)NCCN1Cc1ccccc1C(F)(F)F (stereo not drawn)	3%
CN1CCN(CCCNC(=O)CCc2nnc3n(Cc4ccccc4Cl)c(=O)c4ccccc4n23)CC1	-8%
CCOc1cnn(-c2ccccc2)c(=O)c1Cl	8%
Cc1ccccc1-c1nnn(C/C(N)=N/O)n1	6%
CCOc1ccc(Cc2c(Cl)nc(N)nc2Cl)cc1	10%
C(=N\Nc1ccccc1)/c1ccc(N2CCOCC2)cc1	2%
O=C1CCc2cc(S(=O)(=O)NCc3ccccc3)cc3c2N1CC3	-9%&6%
COc1cccc(NC(=O)CCSc2ccc3ccccc3n2)c1	5%
Cc1ccc(NC(=O)Cn2c(=O)n(CCCCC(=O)NCCc3ccccc3)c(=O)c3ccccc32)c(C)c1	-7%
NC(=O)c1ccc(OCC(=O)N2CCNC2=O)cc1	3%
COC(=O)C1=C(C)N(CCc2ccc(OC)c(OC)c2)C(=O)/C1=C\c1ccc(O)cc1	-29%
O=S(=O)(Nc1nc2c(s1)CCCC2)c1ccc(Br)cc1	-10%
O=C(c1cc2ccccc2oc1=O)N(Cc1ccccc1F)C1CCS(=O)(=O)C1 (stereo not drawn)	0%
Cc1csc(NC(=O)CCS(=O)(=O)c2ccc(Br)cc2)n1	-2%
Cc1ccc(C(=O)N(CCc2ccccc2)Cc2ccccc2)cc1S(=O)(=O)N1CCCCC1	11%
COc1ccc(N(Cc2ccccc2)S(=O)(=O)c2cc(C(=O)O)ccc2Cl)cc1	-14%
Cc1ccc2cc(C3CC(c4ccco4)=NN3S(C)(=O)=O)c(Cl)nc2c1 (stereo not drawn)	-2%
CCC(=O)N/N=C(\C)CC(=O)Nc1ccc2c(c1)OCCO2	-3%
Cc1ccc(C(=O)COc2nc(C)nc3ccccc23)cc1	3%
CC(=O)Nc1ccc(S(=O)(=O)NCC(=O)OCC(=O)NCc2ccco2)cc1	-18%
Cc1ccc(S(=O)(=O)N(C)C)cc1NC(=O)COC(=O)C1=COCCO1	9%
CC(/C=C/c1ccccc1)=N/NC(=O)CCC(=O)Nc1ccccc1C	1%
CCc1ccc(NC(=O)CSc2nc3c([nH]c4ccccc43)c(=O)n2-c2cccc(OC)c2)cc1	-10%
COc1ccc(NC(=O)c2ccco2)cc1NC(=O)COc1ccc(C)c(C)c1	6%
COC(=O)[C@H](Cc1ccccc1)NC(=O)O[C@H]1C(=O)c2cc(OC)ccc2O[C@@H]1c1ccc(OC)c(Br)c1	-2%&5%
Cc1ccc(NC(=O)CN(C)CC(=O)Nc2ccc(F)c(Cl)c2)cc1	-10%
CCCN(CCC)CCNC(=O)C1CCN(S(=O)(=O)c2cccc3nsnc23)CC1	-12%
CC(C)CCN(C(=O)CCSc1ccc(F)cc1)c1c(N)n(Cc2ccccc2)c(=O)[nH]c1=O	-11%
Cc1ccc(NC(=O)N2CCC(C(=O)c3ccc(F)cc3)CC2)cc1	12%
CCCCN1C(=O)C(O)(CC(=O)c2c(C)n[nH]c2C)c2cc(Br)ccc21 (stereo not drawn)	-5%
Cc1ccccc1C(=O)Nc1ccnn1C1CCN(CC2CC=CCC2)CC1 (stereo not drawn)	-16%
COc1ccc(NC(=O)c2cccc(N3C(=O)c4cccc([N+](=O)[O-])c4C3=O)c2)cc1	-29%
Cc1ccccc1Cn1c(=O)n(CCc2ccccc2)c(=O)c2ccccc21	-3%
O=C(Nc1cccc(C(F)(F)F)c1)c1cccnc1NCCc1ccccc1	-23%
COc1cccc(CN2CCN(Cc3ccco3)CC2)c1	23%
O=C(Cc1ccc(Br)cc1)NCc1ccccc1	3%
CC[C@@H]1C(c2cccc(Cl)c2)=NN(c2ccccc2)[C@H]1C(=O)N1CCOC1=O	-16%
COc1ccc2c(c1)C(=O)C(=O)N2CCS(=O)(=O)c1ccccc1	2%
Cc1nnc(NC(=O)C2CCN(c3nnnn3-c3ccccc3)CC2)s1	5%
Cn1nnnc1SCC(=O)NCc1ccc2c(c1)OCO2	0%
Cn1nccc1C(=O)N1CCN(c2ccccc2F)CC1	-8%
Cc1cccc(N2CCN(C(=O)c3ccc4c(Cl)c5c(nc4c3)CCCC5)CC2)c1C	2%
CCN(Cc1cc2cc(C)ccc2[nH]c1=O)C(=O)c1cccc(OC)c1	-6%
COCC(=O)N1CCC2(CC1)CN(Cc1ccc(C#N)cc1)C2	-13%
COc1ccc(CNC(=O)c2cnccn2)cc1	-7%
CCOC(=O)c1ccc(NC(=O)CSc2nnc(C3CC3)n2CC)cc1	0%

Bioassay records as filed in PubChem BioAssay.
